Ecoli rRNA inh = reduced GFP signal of wild-type E. coli, primary screen, bacterial rRNA inhibitor project, GFP/RFP fluorescence, OD600, single point; E. coli WT GFP vs humanized-ribosome RFP mutants, 24 h; hits give low values; DMSO median 0, no signal -100; GFP signal change (wild-type ribosome), % (test concentration not listed); actives 1.6% (n = 350,000); AID 720706, 2013;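 active means significant combined selectivity score with lowered wild-type GFP, culture density cut under 30%, mutant RFP and density less affected; inactive means any of these conditions unmet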; further: one replicate is shown; some compounds called inactive have numbers as strong as hits
T cruzi repl = inhibitors of intracellular T. cruzi growth, primary screen, luminescence, NIH3T3 host cells. T. cruzi beta-gal in NIH3T3, 90 h. inhibition, % (concentration not given with the values). actives 1.4% (n = 300,000);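 active means mean inhibition across valid replicates above about 55%, limit read from the data; inconclusive means mean below that limit but half or more replicates reach it; inactive means mean below it, under half of replicates reach it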;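 further: signal also drops with host cell toxicity which is not excluded here; 0% = plate median of DMSO wells and 100% = zero luminescence signal; higher percent means less beta-gal luminescence so fewer parasites; stock transfer was 50 nL into about 50 µL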
B2AR ag = beta2AR agonists driving receptor internalization, primary screen, cell-based, FAP fluorogen, flow cytometry; Beta-2 adrenergic receptor (Homo sapiens), P07550; Am2.2-beta2AR cells; reference of the scale not given here; response, % (no concentration beside the values); actives 0.43% (n = 340,000);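 active means response above a set limit, near 3 SD of response in nonfluorescent compounds, cut at about 42% in these data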;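 further: stock transfer was 100 nL into about 11 µL; a reference agonist was the positive control; negative values mostly stem from fluorescent compounds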
Target sequence (P07550 whole entry, looked up): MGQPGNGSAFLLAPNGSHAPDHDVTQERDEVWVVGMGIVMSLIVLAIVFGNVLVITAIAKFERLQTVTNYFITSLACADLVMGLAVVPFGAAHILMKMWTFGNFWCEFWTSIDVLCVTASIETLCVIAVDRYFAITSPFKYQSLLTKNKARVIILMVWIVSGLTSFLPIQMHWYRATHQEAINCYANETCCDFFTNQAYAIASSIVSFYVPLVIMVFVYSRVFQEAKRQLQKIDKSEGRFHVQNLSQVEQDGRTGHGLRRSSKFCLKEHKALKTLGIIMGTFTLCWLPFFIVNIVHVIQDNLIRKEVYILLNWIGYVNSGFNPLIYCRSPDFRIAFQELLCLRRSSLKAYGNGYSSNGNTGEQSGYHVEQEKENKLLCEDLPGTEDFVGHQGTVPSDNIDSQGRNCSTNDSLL
Calb FLC = C. albicans growth inhibition with fluconazole, primary screen, CaCi-2 strain, Alamar Blue fluorescence; C. albicans CaCi-2 (fluconazole-resistant clinical isolate) + fluconazole, 48 h; growth inhibition, % (no concentration beside the values); actives 0.57% (n = 300,000); AID 1979, 2009;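 active means most replicates above 75%; inconclusive means exactly half above 75%; inactive means most below 75%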;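 further: all wells also contain fluconazole at 8 µg/ml as a sub-toxic cotreatment; 0% = median of DMSO wells and 100% = median of geldanamycin control wells; wells of about 8 µL received 7.5 nL stock; the first replicate is given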
LANA-H2B inh = blockers of LANA interaction with H2A/H2B – biochemical, FP readout, HTS, primary screen; cell-free LANA-H2A/H2B peptide, fluorescence polarization; inhibition, % (no concentration beside the values); actives 0.6% (n = 320,000); Protein LANA1 (Human herpesvirus 8 type P (isolate GK18)), Q9QR71; in the data active means inhibition mostly above about 10%, no sharp cut-off; inactive means mostly below about 6.7%;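 further: stock transfer was 7.5 nL into about 10 µL; 0% = median of vehicle wells and 100% = median of positive control wells; one replicate is shown; the record names a cut of 25% in any replicate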
Beta cell apopt = inhibitors of cytokine-induced beta cell apoptosis, primary screen, luminescence; protection from apoptosis, % (no concentration beside the values); actives 0.8% (n = 300,000); INS-1E cytokine-induced death, ATP luminescence, 48 h; percent of positive-control rescue, neutral wells zero;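 active means all replicates at 75% or more, or half of them and the mean; inconclusive means half reach 75% but not the mean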;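 further: 0% = cytokine-treated negative control wells and 100% = positive control rescue; higher means more ATP so stronger rescue from cytokine killing; wells of about 40 µL received 100 nL stock; the first replicate is given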
A1 inh = caspase 3/7 activation in MEF A1-2A-BIM cells, primary screen, A1 inhibitor project, cell-based, luminescence, HTS; Caspase-Glo 3/7 luminescence, 3 h; percent of clofoctol response, vehicle zero; caspase activation, % (no concentration beside the values); actives 0.066% (n = 330,000); AID 2462, 2010;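 active means over half of replicate activation scores above 10%, or exactly half above 10 with the replicate mean above 10; inconclusive means replicate mean below 10 yet half the replicates above 10; inactive means over half of replicates below 10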;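 further: wells of about 30 µL received 50 nL stock; many hits fall short of the cut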
ALR H2O2 inh = inhibitors of human ALR sulfhydryl oxidase, primary screen, biochemical, H2O2 detection, HRP-luminol luminescence, single point. FAD-linked sulfhydryl oxidase ALR (Homo sapiens), P55789. purified ALR, DTT oxidation. inhibition, % (test concentration not listed). actives 3.8% (n = 290,000). AID 485317, 2010;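 active means mean and each replicate at 75% or more; inconclusive means only one of the two met; inactive means neither met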;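 further: stock transfer was 7.5 nL into about 7.5 µL; 0% = neutral wells and 100% = wells with inactivated enzyme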
Target sequence (P55789 whole entry, looked up): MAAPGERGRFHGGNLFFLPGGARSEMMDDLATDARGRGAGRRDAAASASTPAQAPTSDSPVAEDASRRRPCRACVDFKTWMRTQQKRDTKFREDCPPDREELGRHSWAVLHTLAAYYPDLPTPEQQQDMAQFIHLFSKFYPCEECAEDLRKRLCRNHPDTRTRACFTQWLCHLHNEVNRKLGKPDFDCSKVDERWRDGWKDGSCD
Ecoli rRNA inh OD600 = recorded beside Ecoli rRNA inh, whose call it bears; OD600 change, %; measured here: OD600 growth;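 optical density of the mix in the first replicate; 0 = DMSO median and -100 = no signal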
Ecoli rRNA inh RFP = further read-out of Ecoli rRNA inh, marked with its call; RFP signal change, %; measured here: RFP humanized mutant strains;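 first replicate; 0 = DMSO median and -100 = no signal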
Starred values were filed as active, the others as inactive; ? = inconclusive; nt = not tested or not shown; & = joins results of further samples. This is a subset; the hit share may differ from the screen's.

Compound | Ecoli rRNA inh | Ecoli rRNA inh OD600 | Ecoli rRNA inh RFP | T cruzi repl | B2AR ag | Calb FLC | LANA-H2B inh | Beta cell apopt | A1 inh | ALR H2O2 inh
Cn1cc(C(=O)c2ccc(Cl)cc2Cl)cc1C=O | 5 | 4 | -4.0 | 2 | -5 | 2 | 2.6 | -1 | -2.6 | -1
CC1(C)CC(=O)C(C(C#Cc2ccccc2)C2=C(O)CC(C)(C)CC2=O)=C(O)C1 | nt | nt | nt | 2 | 0 | 0 | 17* | nt | 0.4 | 37
O=C(CN(C(=O)c1csnn1)c1ccc(F)cc1)NCc1ccc(F)cc1 | -15 | -5 | -1.7 | -1 | 3 | -11 | -0.2 | -2 | 1.0 | -3
Cc1cc(C(=O)COC(=O)c2ccc3c(c2)OCO3)c(C)n1Cc1cccs1 | nt | nt | nt | 1 | 0 | -9 | -3.2 | -3 | -1.0 | 5
COc1cccc(COC(=O)c2c(C)nn(-c3ccccc3)c2Cl)c1OC | -25 | -23 | -7.5 | -11 | -3 | 16 | -2.4 | -3 | -0.2 | -1
CCN1CCN(Cc2ccc(NC(=O)c3ccc(C)c(NC(=O)c4csc(-c5ccncc5)n4)c3)cc2C(F)(F)F)CC1 | -35 | -65 | 6.4 | 46 | 6 | 21 | -0.5 | 1 | 1.5 | -14
CCc1ccccc1NC(=O)N1CCCc2ccccc21 | 7 | 12 | -0.3 | 7 | 5 | -22 | 0.5 | -1 | 0.2 | -11
Cc1cccn2c(=O)c3cc(C(=O)NCc4ccco4)c(=N)n(C(C)C)c3nc12 | nt | nt | nt | 29 | 6 | -8 | 0.3 | nt | 0.2 | 15
O=C(Nc1nn[nH]n1)c1ccc(S(=O)(=O)N2CCCCC2)cc1 | 18 | 11 | 0.5 | 0 | -2 | 25 | 0.3 | -1 | 0.1 | nt
O=C(N/N=C/C(Br)=C\c1ccccc1)c1ccco1 | nt | nt | nt | -15 | -3 | -1 | 3.5 | nt | -3.7 | -2
Cc1ccc(S(=O)(=O)NCc2cccnc2)cc1C(=O)NC1CCCCC1 | 2 | -1 | -1.9 | 4 | -1 | -3 | 1.8 | nt | 0.1 | -16
COc1cc(C2C(C#N)=C(N)OC3=C2C(=O)CCC3)ccc1OC(=O)N1CCOCC1 (stereo unspecified) | 11 | 0 | -7.7 | -5 | -7 | -11 | -0.5 | 2 | -0.1 | nt
O=C(Cn1ncc2c3ccccc3n(Cc3ccccc3F)c2c1=O)NCCCN1CCCC1=O | -5 | -13 | 2.8 | 23 | -3 | -16 | -9.0 | 1 | 0.5 | -8
CCC(C)NC(=O)NC1C(NC(=O)NC(C)CC)N(C)C(=O)N1C (stereo unspecified) | nt | nt | nt | -14 | 1 | 36 | 0.6 | nt | -0.8 | -8
CCN(CC)S(=O)(=O)c1cccc(NC(=O)CCNC(=O)c2ccccc2Cl)c1 | -3 | -4 | 0.9 | 5 | -2 | 8 | 1.1 | 0 | 0.1 | nt
NC(=O)c1cccc(CC(=O)c2ccccc2)c1 | 1 | 3 | 1.8 | 2 | 1 | 5 | 1.0 | -10 | -0.4 | -12
CN(C(=O)CN1C(=O)S/C(=C\c2ccccc2F)C1=O)C1CCS(=O)(=O)C1 (stereo unspecified) | -2 | 3 | 2.0 | -4 | 2 | -5 | 2.5 | -4 | 1.0 | -1
Cc1[nH]c2ccccc2c1C(=O)CSc1ccccc1 | nt | nt | nt | 16 | -13 | 2 | 2.4 | -7 | 0.2 | 16
O=C(Nc1c(C(=O)N2CCOCC2)oc2ccccc12)c1cccc([N+](=O)[O-])c1 | 2 | 16 | -1.9 | 44 | -10 | -2 | 2.5 | 3 | 0.9 | -1
O=C(CN1CCC(c2nc3ccccc3s2)CC1)NCc1cccs1 | nt | nt | nt | 68* | 3 | 13 | -4.8 | 1 | -1.8 | -4
Cn1c(=O)c2c(nc(NCc3ccc4c(c3)OCO4)n2Cc2ccc(F)cc2)n(C)c1=O | nt | nt | nt | -16 | -5 | 8 | 4.4 | 28 | -0.2 | -7
Brc1ccc2c(c1)OCCOCCOCCOCCOCCOCCO2 | 2 | -2 | 2.0 | -7 | 3 | -14 | -1.4 | 3 | -0.1 | -4
Cc1ccc(-n2c(SCC(=O)N(C)C3CCS(=O)(=O)C3)nc3ccccc3c2=O)c(C)c1 (stereo unspecified) | 3 | 1 | 2.4 | nt | 0 | nt | 8.0 | -3 | 0.0 | -7
COc1ccccc1-n1c(SCC(=O)Nc2cccc(S(N)(=O)=O)c2)nc2ccccc2c1=O | -8 | -13 | -0.4 | 0 | 8 | 12 | -2.4 | -7 | 1.0 | -7
CCC(CO)N=C1CC(C)(C)CC(=O)/C1=C(/O)CCCN1C(=O)c2ccccc2C1=O (stereo unspecified) | -5 | 1 | -0.9 | 4 | -3 | 13 | -7.1 | 0 | 0.4 | -2
COc1cccc2c(O)cc(=O)n(C)c12 | 9 | 6 | 2.2 | 5 | 0 | -4 | 4.7 | -8 | 0.6 | 14
CCc1ccc(-c2c(C)sc(NC(=O)C3CCC3)c2C#N)cc1 | nt | nt | nt | -17 | -4 | 10 | -3.0 | -1 | 0.4 | 0
Cc1cccc(NC(=O)CCCN2C(=O)c3ccccc3C2=O)n1 | nt | nt | nt | -10 | -13 | -9 | 0.9 | -4 | 1.2 | 5
COc1ccc(NC(=O)CCN2C(=O)C3C4C=CC(C4)C3C2=O)cc1 (stereo unspecified) | 5 | -5 | 1.9 | -1 | 0 | -17 | -2.0 | -2 | -0.6 | -2
Cc1ccc(NC(=O)Cc2nnc(N)s2)cc1 | 8 | 1 | 0.4 | -5 | 7 | -1 | 6.7 | -14 | -0.4 | nt
COc1ncccc1C(=O)N1CCC(n2nccc2NC(=O)CC(C)C)CC1 | 19 | 13 | -1.0 | -3 | 1 | -6 | -13 | -7 | 0.5 | 0
O=C(Cc1ccccc1)NC1CCS(=O)(=O)C1 (stereo unspecified) | nt | nt | nt | -3 | -35 | 1 | -0.7 | 3 | -0.5 | 0
Cc1ccc(NC(=O)COC(=O)c2c(C)nn(-c3ccccc3)c2C)cc1 | -30 | -36 | -8.0 | nt | 1 | nt | -0.8 | -1 | 0.2 | -2
COc1ccc(C(CC(=O)O)N2Cc3ccccc3C2=O)cc1OC (stereo unspecified) | 11 | 16 | -0.7 | -7 | 1 | -4 | 1.7 | 0 | -0.3 | -5
O=C(CSc1nnc(-c2cccnc2)o1)Nc1cccc(F)c1 | 4 | 4 | 1.2 | -17 | -2 | -2 | 0.6 | -5 | 0.3 | 67
C=C1C[C@]23C[C@@]1(O)CC[C@H]2[C@@]12C=C[C@H](O)[C@@](C)(C(=O)O1)[C@H]2[C@@H]3C(=O)O | 3 | 3 | -1.1 | nt | 3&-2 | nt | 2.9&0.9 | -3&1 | -0.2&1.2 | -14&-30
NC(=O)c1ccsc1NC(=O)CSc1ncnc2sccc12 | -3 | -26 | 0.0 | nt | -5 | nt | -1.9 | -3 | 0.3 | -1
Oc1[nH]c2ccccc2c1C=Nc1ccc2c(c1)OCO2 | nt | nt | nt | -8 | 5 | 13 | -8.4 | 11 | -7.5 | ?
O=C(O)CCC(=O)NNc1nc2ccccc2nc1-c1ccccc1 | 8 | 3 | -1.6 | 3 | -7 | -9 | 2.9 | -3 | 0.2 | 6
CCOC(=O)[C@@H]1[C@H]2COc3ccccc3[C@@H]2N2C(=O)N(c3ccc(Br)cc3)C(=O)[C@]12C | -6 | -5 | -3.1 | nt | 2 | nt | -4.5 | 1 | 2.3 | 5
COc1cccc(C(=O)N/N=C/C(Br)=C/c2ccccc2)c1 | nt | nt | nt | -22 | 12 | -4 | 1.5 | -3 | -3.4 | -5
CCOCCCNC(=O)N1CCOCC1 | nt | nt | nt | -10 | -3 | -8 | 1.1 | 6 | 0.6 | -7
COc1ccccc1S(=O)(=O)Cc1ccc(C(=O)NCCN(C)C)o1 | 12 | 11 | -0.7 | -12 | -2 | -2 | -0.4 | 0 | 0.3 | 2
CCN(Cc1cc2ccccc2[nH]c1=O)C(=O)c1cccc([N+](=O)[O-])c1 | 4 | 5 | -2.1 | -4 | nt | -2 | 1.5 | -6 | 0.0 | -42
CCN(CC(=O)Nc1c(F)cccc1F)C(=O)Cc1csc(-c2ccccc2)n1 | -6 | -15 | -1.6 | -11 | -2 | -7 | 2.0 | -2 | 2.0 | 2
CCCC[n+]1ccn(-c2nc3ccccc3nc2[N-]S(=O)(=O)c2ccc(Br)cc2)c1 | 7 | 4 | -5.1 | 3 | 6 | -5 | 0.6 | -1 | 0.2 | -7
CCOC(=O)C(=O)NCC(c1ccco1)S(=O)(=O)c1cccs1 (stereo unspecified) | 8 | 6 | 0.5 | -13 | 8 | 2 | 0.3 | nt | -1.0 | 2
CCSc1nc2ccccc2n1Cc1ccccc1F | nt | nt | nt | 3 | -2 | 20 | -1.7 | nt | -0.2 | nt
COc1ccc(NC(=O)COC(=O)CNS(=O)(=O)c2ccccc2)cc1OC | 13 | 11 | 2.8 | -16 | -6 | -11 | -12 | -4 | -0.1 | -24

Rewritten with two lines to a compound: three of the compounds above
Fields: Ecoli rRNA inh, Ecoli rRNA inh OD600, Ecoli rRNA inh RFP, T cruzi repl, B2AR ag, Calb FLC, LANA-H2B inh, Beta cell apopt, A1 inh, ALR H2O2 inh
CCc1ccc(-c2c(C)sc(NC(=O)C3CCC3)c2C#N)cc1
 : nt, nt, nt, -17, -4, 10, -3.0, -1, 0.4, 0
Cc1cccc(NC(=O)CCCN2C(=O)c3ccccc3C2=O)n1
 : nt, nt, nt, -10, -13, -9, 0.9, -4, 1.2, 5
COc1ccc(NC(=O)CCN2C(=O)C3C4C=CC(C4)C3C2=O)cc1 (stereo unspecified)
 : 5, -5, 1.9, -1, 0, -17, -2.0, -2, -0.6, -2

Screening data: PubChem BioAssay, several laboratories
